Source: PubChem (SRMLSC)
H5N1 CPE: antiviral screen in MDCK cells, H5N1 avian flu; 0.07% of 96,000 active; inhibition, % at 50 µM; cytopathic effect, luminescence, 72 h; hits give high values; no value below 0 was filed and about half of the inactive calls have no number; reference of the scale not given here; AID 740; in the data active = inhibition above about 25%
Starred values were filed as active, the others as inactive; i = inactive. An excerpt; count on the stated rates, not on these rows.

smiles | H5N1 CPE
O=C(c1ccccc1-c1nc(-c2ccc(F)cc2)no1)N1CCCC1 | i
O=C(C1CC(=O)N(C2CCCC2)C1)N1CCN(c2ccccc2F)CC1 (configuration not stated) | 0.4
Fc1ccc(N2CCN(C(c3cccs3)c3nnnn3C3CCCC3)CC2)cc1 (configuration not stated) | 0.9
Cc1cc(OCC(=O)Nc2ccncc2)ccc1Br | 0.5
Cc1nc(SCC(=O)Nc2ccc(C)c(F)c2)c2oc3ccccc3c2n1 | i
O=C(O)CCC(NC(=O)OCc1ccccc1)C(=O)O (configuration not stated) | i
CCCS(=O)(=O)N1CCCC(C(=O)NCCCN(C)Cc2ccccc2)C1 (configuration not stated) | i
CCOc1ccc(-c2nnc(SCC(=O)N(CC)CC)n2N)cc1 | 0.0
Cc1noc(C)c1S(=O)(=O)N1CCC(C(=O)N2CCN(c3ccc(Cl)cc3)CC2)CC1 | 0.3
CCOC(=O)CN1C(=O)C(C)(C)Oc2ccc(C(=O)NC(C)(C)CC)cc21 | i
CC1=C(OC(=O)c2ccccc2)C(C)(C)C(c2ccc(Br)cc2)OC1=O (configuration not stated) | 0.4
O=C(Nc1ccc(F)cc1)N1CCN(c2nc3ccccc3s2)CC1 | 2.8
O=C(NCc1cccnc1)/C(=N\O)c1ccccc1 | 0.1
COc1ccc(OCc2ccc(-c3nc4ccccc4c(=O)n3N)o2)cc1 | 2.0
COc1ccc(-c2cc(C(F)(F)F)nc(SCCC(=O)N3CCOCC3)n2)cc1 | 0.7
O=C(Cn1nc(Cc2cccnc2)c2ccccc2c1=O)NCc1ccc(F)cc1 | 1.6
O=C(c1c[nH]c(C(=O)C(Cl)(Cl)Cl)c1)c1ccccc1Cl | 0.5
Cc1ccnc(N2CCC(C(=O)Nc3nnc(C)s3)CC2)n1 | i
CC(C)OC(=O)CSc1nnc(-c2cnccn2)n1-c1ccc(Cl)cc1 | 2.0
COC(=O)c1cc(COC(=O)c2ccc(OC)c(S(=O)(=O)N3CCCC3)c2)oc1C | i

Next records:
smiles | H5N1 CPE
Cc1cccc(-c2cc3nc(C)cc(NCCCN(C)C)n3n2)c1 | i
CCCOCC(O)COc1ccccc1C(=O)N1CCOCC1 (configuration not stated) | i
CCOc1ccc(NC(=O)CN(C)CC(=O)Nc2cccc(Cl)c2C)cc1OCC | i
COc1ccc(-c2ccc(SCC(=O)N3CCOCC3)nn2)cc1OC | i
COc1ccc(S(=O)(=O)Nc2ccc(S(=O)(=O)Nc3nc(C)cc(C)n3)cc2)cc1OC | 1.8
O=C(CSc1nc2c(c(=O)n1-c1ccc(Br)cc1)SCC2)NCc1ccco1 | 0.1
Cc1ccccc1Cn1nnc(C(=O)Nc2cccc(C)c2C)c1N | i
C/C=C/c1ccc(OCCCNCC(C)O)c(OC)c1 (configuration not stated) | i
Cc1ccccc1Nc1nc(-c2sc(NC(=O)c3ccco3)nc2C)cs1 | i
Cc1ccc(C(=O)O/N=C\c2ccc(N3CCCCC3)c([N+](=O)[O-])c2)cc1 | i
CCCCC(=O)Nc1nnc(C)s1 | 0.7
COc1ccc(CCNS(=O)(=O)c2cn(C)c(=O)n(C)c2=O)cc1OC | i
CC(=O)NCC(=O)N(Cc1ccco1)C1(C(=O)NC2CCCCC2)CCCCC1 | 0.1
COCc1n[nH]c(=S)n1-c1cccc2ccccc12 | i
COc1cc2c(cc1OC)-c1cc(NC3CCCC3)nc(=O)n1CC2 | 0.5
COCc1cc(C)nc(SCC(=O)Nc2ccc3c(c2)OCO3)c1C#N | i
Cc1cc(NC(=O)Cn2nc(C(F)(F)F)c3c2CCC3)no1 | i
COc1ccccc1NC(=O)c1sc(NC(=O)c2ccco2)c(C#N)c1C | 0.5
CN(C1CCCCC1)S(=O)(=O)c1ccc(NC(=O)C2CCCCC2C(=O)O)cc1 (configuration not stated) | 0.1
O=C(/C=C\Nc1cccc(F)c1)c1cccs1 | 0.6

Given field by field: part of the list above
Cc1ccnc(N2CCC(C(=O)Nc3nnc(C)s3)CC2)n1
- H5N1 CPE: i

CC(C)OC(=O)CSc1nnc(-c2cnccn2)n1-c1ccc(Cl)cc1
- H5N1 CPE: 2.0

Continuation.
smiles | H5N1 CPE
CCOC(=O)c1sc2nc(CSCC(=O)OCc3ccc(C(=O)OC)o3)[nH]c(=O)c2c1C | 0.5
CCOC(=O)c1cnc(-n2nc(C)cc2C)nc1NC1CCCCC1 | 14.4
O=C(N/N=C/c1ccc(O)cc1)c1csc2ccccc12 | 1.1
CCC(OC(=O)c1cccs1)C(=O)NC1CCCCC1 (configuration not stated) | 1.9
CN1C(=O)CC(N2CCN(c3ncccn3)CC2)C1=O (configuration not stated) | 0.1
COc1cc(OC)cc(-c2nc(N)n[nH]2)c1 | 3.1
COc1ccccc1-c1ccc(Nc2cccc(C(C)=O)c2)nn1 | i
Cc1onc(-c2ccccc2Cl)c1C(=O)Nc1ccc(-n2nncc2-c2ccco2)cc1 | i
CC1CCC(=NNC(=O)Cc2ccccc2)CC1 (configuration not stated) | i
O=C(NCc1ccco1)c1cc2sccc2n1Cc1ccc(F)cc1 | 0.1
CC(C)C(NS(=O)(=O)c1cccc2nsnc12)C(=O)N1CCn2c1nc1ccccc12 (configuration not stated) | 3.0
Cc1ccc(NC(=O)N2CCC(c3nc4c(nnn4Cc4cccc(Cl)c4)c(=O)[nH]3)CC2)cc1 | 0.4
O=C(CSc1nnc2ccccn12)c1ccc2c(c1)OCCO2 | 1.1
COC(=O)CC1=C(C(=O)OC)C(c2cccc(OCC(N)=O)c2)C(C#N)=C(N)O1 (configuration not stated) | i
Cn1cc(SCC(=O)Nc2nc3ccccc3s2)c2ccccc21 | i
CCN(c1ccc(C)c(C)c1)S(=O)(=O)c1ccc2c(c1)CCN2C(=O)CCC(=O)O | 2.4
Cc1ccc2[nH]cc(CCNC(=O)Nc3ccccc3)c2c1 | i
CCCn1c(NC(=O)c2ccccc2)nc2ccccc21 | 12.8
Cc1ccc(Nc2nc3ccccc3o2)cc1F | i
C=CCN1C(=O)CN=C1NCc1ccccc1 | 0.9

(more compounds)
smiles | H5N1 CPE
COc1ccccc1N1CCN(C(=O)c2sc3nc(-c4ccc(F)cc4)cn3c2C)CC1 | i
CCc1nnc(NC(=O)C2COc3ccccc3O2)s1 (configuration not stated) | 0.2
O=C(NC(=O)c1cccc(Cl)c1)OC[C@@H]1CCCN2CCCCC12 (some centres not stated) | 2.4
COc1ccc(CCNC(=O)c2ccncc2)cc1OC | 0.1
O=C(Nc1ccc(S(=O)(=O)C(F)F)cc1)c1cccc(S(=O)(=O)N2CCOCC2)c1 | i
COc1ccc(Cn2c(SCc3ccccc3C)nc3cc(OC)c(OC)cc3c2=N)cc1 | i
FC(F)(F)c1cccc(-c2nnc(-c3ccccc3)c(N3CCOCC3)n2)c1 | i
Cc1cccc(NC(=S)NNC(=O)c2ccccc2OC(F)F)c1 | i
COC(=O)c1cccc(NC(=O)c2ccc(S(=O)(=O)N3CCN(C)CC3)cc2)c1 | i
O=C(NCc1cn2ccccc2n1)c1ccco1 | 3.3
COc1cc(/C=C(/C#N)c2nc3ccccc3[nH]2)ccc1OCc1ccc(C(=O)O)o1 | 0.5
COc1c(Br)cc(Br)cc1/C=N/n1c(C)nnc1C | 0.1
COc1ccc(S(=O)(=O)N(CC(=O)NCC2CCCO2)c2ccc(F)cc2)cc1OC (configuration not stated) | 0.9
C=CCN(C(=O)CCC(=O)Nc1cc(C)on1)C(C(=O)NC1CCCC1)c1cccnc1 (configuration not stated) | 0.4
CC(=O)NCC1=C(NC(C)=O)C2CC1C(C)(C)C2C (configuration not stated) | 0.5
Cc1cc(S(=O)(=O)Nc2cc(C)c(O)c(C)c2)c(C)s1 | i
COc1ccc(OC)c(S(=O)(=O)N2CCC(C(=O)NCCC3=CCCCC3)CC2)c1 | i
COc1ccc(C2CC(c3cc(OC)ccc3OC)n3nnnc3N2)cc1 (configuration not stated) | 0.7
COC(=O)C1CCN(C(=O)c2ccc(NC(C)=O)cc2)CC1 | i
CCCn1c(NCc2ccc3c(c2)OCO3)nc2ccccc21 | i

Other records.
smiles | H5N1 CPE
CC(=O)c1ccc(NC(=O)CSCCO)cc1 | 0.5
C=CCSc1nnc(-c2nnc(SCC=C)n2CC)n1CC | 0.5
O=C(NC1CCSC1=O)c1ccc(Oc2cccc(C(F)(F)F)c2)nc1 (configuration not stated) | 0.3
O=C(CCN1c2ccccc2Sc2ccccc21)Nc1ccccc1 | i
O=C(CCCC1=NS(=O)(=O)c2ccccc2N1)N1CCC2(CC1)OCCO2 | 1.1
CCN1CCN(c2nc3ccccc3nc2C(C#N)C(=O)OCc2ccccc2)CC1 (configuration not stated) | i
CC1CCCCN1S(=O)(=O)c1ccc(C(=O)Nc2sccc2C(N)=O)cc1 (configuration not stated) | i
Cc1c(/C=N\NC(=O)c2csc3ccccc23)cnn1C | i
CCc1c(C)sc(NC(=O)OC)c1C(=O)N1CCOCC1 | i
N#Cc1ccc(C23CC4CC(CC(C4)C2)C3)[nH]c1=O | 2.2
CC(=O)c1cccc(NC(=O)C2CCCN(S(C)(=O)=O)C2)c1 (configuration not stated) | i
CCOC(=O)c1ccc(N2C(=O)CC(N(C)CCc3ccc(OC)c(OC)c3)C2=O)cc1 (configuration not stated) | 1.3
CN(c1ccc(OCC(=O)N2CCCCC2)cc1)S(=O)(=O)c1cccs1 | 2.1
O=C(CCCc1c[nH]c2ccccc12)NCc1ccc2c(c1)OCO2 | 0.6
O=C(NCc1ccco1)c1cc2ccc(O)cc2oc1=O | i
Cc1ccc(NC(=O)NCC(c2cccnc2)N2CCOCC2)cc1 (configuration not stated) | 0.8
COc1ccc(N(C(=O)Cn2nnc(-c3ccc(Cl)cc3)n2)C(C(=O)NCC2CCCO2)c2ccc(C)cc2)cc1 (configuration not stated) | i
COc1cc2c(cc1NC(=O)CCCCCN1C(=O)CCC1=O)oc1ccccc12 | i
CC(C)c1ccc(CC(C)C2C3=C(CCCC3=O)OC3=C2C(=O)CCC3)cc1 (configuration not stated) | 1.6
Nc1nnc(CSc2ccc(Cl)cc2)s1 | 0.2

Next entries:
smiles | H5N1 CPE
Cc1ccc(S(=O)(=O)N/N=C/c2cccn2-c2ccc(Cl)cc2)cc1 | 2.9
O=C(O)CCC(=O)Nc1ccc(Br)cn1 | 0.0
CCOC(=O)C1CCCN(C(=O)COc2ccccc2O)C1 (configuration not stated) | i
CC(=O)Nc1nc2ccccc2n1CCN(C)C | i
O=C(CN1C(=O)CCSc2ccccc21)Nc1ccc2c(c1)OCCO2 | 1.3
CCOc1ccc(N/C(SC)=C(/C#N)C(N)=O)cc1 | i
Cn1cccc1C(=O)NC(=O)COC(=O)CC12CC3CC(CC(Br)(C3)C1)C2 | i
CC(NC(=O)C1CCC1)c1ccc(Cl)cc1 (configuration not stated) | 0.8
Cc1ccc(Oc2nc3ccccc3n3c(C)nnc23)c(C)c1 | 0.8
COc1cccc(-n2c(Cc3cc(=O)[nH]c(=O)[nH]3)nnc2SC(C)C)c1 | 0.3
O=C(NCc1ccc(F)cc1)c1cc2c(s1)CCCC2 | i
CCOC(=O)N1CCN(C(=O)c2ccc(OC)c(OC)c2)CC1 | i
COC(=O)c1ccc(NC(=O)c2ccccc2NS(C)(=O)=O)cc1 | 0.3
COc1ccc(-n2nc(C(=O)N3CCN(c4ccc(F)cc4)CC3)c3ccccc3c2=O)c(OC)c1 | i
Cc1cc(C)c(S(=O)(=O)N2C=CC(C(F)(F)F)=NCC2)c(C)c1 | 0.6
O=S(=O)(Nc1nc2ccccc2s1)c1ccc(Cl)s1 | i
C=CCn1cc(-c2ccccc2)cc(C#N)c1=O | i
COc1ccc(-c2c(N)nnc3c2[nH]c2ccccc23)cc1OC | 3.8
COc1cc(OC)c(C2C(C(=O)N3CCOCC3)=C(C)NC3=C2C(=O)CC(C)(C)C3)cc1OC (configuration not stated) | 0.8
CC(=O)Nc1ccc(C(=O)OCc2ccc(Cl)cc2)cc1 | i

The list goes on.
smiles | H5N1 CPE
O=C(CCc1ccc(S(=O)(=O)N2CCOCC2)cc1)Oc1ccccc1 | 1.8
CCOC(=O)C1CCN(c2c(NC3CCCc4ccccc43)c(=O)c2=O)CC1 (configuration not stated) | 0.5
COC(=O)c1ccc(COc2ccc3c(C)c(C)c(=O)oc3c2C)o1 | i
Cn1c(NN)nc2sc3c(c2c1=O)CCC3 | i
CCSc1sccc1C1C(C#N)=C(N)N(c2cccnc2)C2=C1C(=O)CCC2 (configuration not stated) | 0.4
COCCn1c(CCC(=O)O)nc2c1c(=O)[nH]c(=O)n2CC(C)C | 1.3
CC(C)Sc1nnc([C@@H](N)Cc2c[nH]c3ccccc23)o1 | 0.6
Cc1ccc2c(CC(=O)OCc3nc(N)nc(Nc4ccccc4C)n3)coc2c1 | i
C[C@H](NC(=O)Nc1ccc2c(c1)OCCO2)C(=O)O | i
C/C(=N\NC(=O)c1nc(C)cc(C)n1)c1ccccc1 | i
CN(CC(=O)NC1CCCc2ccccc21)S(=O)(=O)c1ccc2c(c1)c(=O)n(C)c(=O)n2C (configuration not stated) | 3.8
Nn1c(SCC(=O)N2CCOCC2)nnc1-c1ccc(Cl)cc1Cl | i

4 of these compounds, reformatted.
SMILES: O=C(CSc1nc2c(c(=O)n1-c1ccc(Br)cc1)SCC2)NCc1ccco1
  H5N1 CPE: 0.1

SMILES: Cc1ccccc1Cn1nnc(C(=O)Nc2cccc(C)c2C)c1N
  H5N1 CPE: i

SMILES: C/C=C/c1ccc(OCCCNCC(C)O)c(OC)c1 (configuration not stated)
  H5N1 CPE: i

SMILES: Cc1ccccc1Nc1nc(-c2sc(NC(=O)c3ccco3)nc2C)cs1
  H5N1 CPE: i
